Source: PubChem
StopGo RLuc – Primary qHTS Assay for Foot and Mouth Disease Virus Antivirals against NCGC Sytravon and CBC Compound Libraries: Renilla Luciferase Signal | HEK cells with a luciferase reporter of 2A StopGo recoding | Potency, µM (series often up to 57.5 µM), inactives show at the top dose signal change, negative = less light | 120,000 tested, 0.32% active; active means well fitted falling curve with a large enough effect; inconclusive means small, poorly fitted or top-dose-only effect; inactive means no such curve, though single readings can be large or run the other way; also: nearly all actives have a fitted effect of over 55% in size; overnight with compound
2A firefly – Primary qHTS Assay for Foot and Mouth Disease Virus Antivirals against NCGC Sytravon and CBC Compound Libraries: Firefly Luciferase Signal; Potency, µM (titrated, usually from 57.5 µM), for inactives: at the top dose signal change, negative = less light; 120,000 tested, 0.23% active; HEK cells with a luciferase reporter of 2A StopGo recoding; active = well fitted falling curve with a large enough effect; inconclusive = small, poorly fitted or top-dose-only effect; inactive = no such curve, though single readings can be large or run the other way; also: nearly all actives have a fitted effect of over 60% in size; overnight with compound
* marks the source's active call; other numbers are inactive results; ? = inconclusive; & = joins results of further samples; [ ] = dose if it differs, or a comment. % is scaled to controls: 0 for no effect and ±100 for the full control effect; potency is read from the fitted curve at half-maximal effect.

Start of the data: the first 4 records, ahead of the listing:
SMILES	StopGo RLuc	2A firefly
Cc1ccc(CNC(=O)c2ccc(Cn3c(=O)c4ccccc4n(CC(=O)Nc4c(C)cc(C)cc4C)c3=O)cc2)cc1	-15%	-16%
COc1cc(OC)c(C2Nc3c(C)cccc3-c3cc(C)nn32)cc1OC (stereo not given)	9%	35%[activator]
CCOP(=O)(OCC)c1nc(-c2ccc([N+](=O)[O-])cc2)oc1NCc1ccc(C)cc1	43%[activator]	-4%
O=S(=O)(NCCO)c1cc(Cl)ccc1Cl	30%	-3%

The whole of this part, from the first entry:
SMILES	StopGo RLuc	2A firefly
Cc1ccc(CNC(=O)c2ccc(Cn3c(=O)c4ccccc4n(CC(=O)Nc4c(C)cc(C)cc4C)c3=O)cc2)cc1	-15%	-16%
COc1cc(OC)c(C2Nc3c(C)cccc3-c3cc(C)nn32)cc1OC (stereo not given)	9%	35%[activator]
CCOP(=O)(OCC)c1nc(-c2ccc([N+](=O)[O-])cc2)oc1NCc1ccc(C)cc1	43%[activator]	-4%
O=S(=O)(NCCO)c1cc(Cl)ccc1Cl	30%	-3%
CN(CCCNC(=O)c1nc2ccccc2c(=O)[nH]1)C(=O)c1cccc(Cl)c1	-3%	56%[activator]
COc1ccc(Nc2nc(N)c(C(=O)c3ccc(OC)c(OC)c3OC)s2)cc1	37%[activator]	20%
O=C(Nc1ccc(Cl)cc1)N1CCC(c2ccccc2)C1 (stereo not given)	39%[activator]	111%[activator]
COc1ccc(-c2cc(-c3nc(-c4ccc(Br)cc4)no3)[nH]n2)c(OC)c1	-12%	3%
CCc1ccc(C(=O)NC2=NC(c3cc(OC)ccc3OC)CC(=O)N2)cc1 (stereo not given)	20%	-2%
Cc1ccc(CNC(=O)c2c(-c3cccc(Br)c3)noc2C)o1	183%[activator]	150%[activator]

Brought forward from above: 3 entries, then new ones.
SMILES	StopGo RLuc	2A firefly
COc1ccc(-c2cc(-c3nc(-c4ccc(Br)cc4)no3)[nH]n2)c(OC)c1	-12%	3%
CCc1ccc(C(=O)NC2=NC(c3cc(OC)ccc3OC)CC(=O)N2)cc1 (stereo not given)	20%	-2%
Cc1ccc(CNC(=O)c2c(-c3cccc(Br)c3)noc2C)o1	183%[activator]	150%[activator]
CCCCn1c(-n2nc(CC)cc2CC)nc2c1c(=O)[nH]c(=O)n2C	-9%	-5%
Cc1cc(C)c(NC(=O)CN2CCN(C(=O)C3CC3)CC2)c(C)c1	-3%	15%
O=C(C1CN(C(=O)c2ccc(Cl)c(Cl)c2)c2ccccc2O1)N1CCOCC1 (stereo not given)	-4%	-4%
Cc1[nH]c2ccccc2c1SCCNC(=O)c1ccccc1	22%	3%
Cc1ccc(CN(C)Cc2ccccc2)o1	0%	6%
Fc1ccc(-c2cn3cc(Br)ccc3n2)cc1F	-10%	82%[activator]
CCOc1ccc(-c2nonc2NC(=O)c2oc3c(C)c(C)ccc3c2C)cc1OCC	-15%	-18%
Cc1cc(C)cc(NC(=O)Cn2nnc(C(=O)Nc3cc(C)cc(C)c3)c2N)c1	1%	-3%
CCOC(=O)Oc1ccc(CCNC(=O)[C@H](CCSC)NC(C)=O)cc1OC(=O)OCC	2%	-5%[11.5 µM]
Cn1c(=O)c2c(nc(CN3CCN(c4ccc(F)cc4)CC3)n2Cc2ccc(F)cc2)n(C)c1=O	-13%	-3%

Record cards (already shown). Order of values: StopGo RLuc	2A firefly
Shown for Cc1ccc(CN(C)Cc2ccccc2)o1 : 0%	6%
Shown for CCOc1ccc(-c2nonc2NC(=O)c2oc3c(C)c(C)ccc3c2C)cc1OCC : -15%	-18%
Shown for Cc1cc(C)cc(NC(=O)Cn2nnc(C(=O)Nc3cc(C)cc(C)c3)c2N)c1 : 1%	-3%

A run of entries taken from the entries so far, for reference:
SMILES	StopGo RLuc	2A firefly
Cc1cc(C)c(NC(=O)CN2CCN(C(=O)C3CC3)CC2)c(C)c1	-3%	15%
O=C(C1CN(C(=O)c2ccc(Cl)c(Cl)c2)c2ccccc2O1)N1CCOCC1 (stereo not given)	-4%	-4%
Cc1[nH]c2ccccc2c1SCCNC(=O)c1ccccc1	22%	3%
Cc1ccc(CN(C)Cc2ccccc2)o1	0%	6%
Fc1ccc(-c2cn3cc(Br)ccc3n2)cc1F	-10%	82%[activator]
CCOc1ccc(-c2nonc2NC(=O)c2oc3c(C)c(C)ccc3c2C)cc1OCC	-15%	-18%
Cc1cc(C)cc(NC(=O)Cn2nnc(C(=O)Nc3cc(C)cc(C)c3)c2N)c1	1%	-3%

Next part:
SMILES	StopGo RLuc	2A firefly
Cc1nc2ccc(NC(=O)Cc3cccc(C(F)(F)F)c3)cc2s1	-2%[1.06 µM]	12%
CCC(=O)N1c2ccccc2CC1C(=O)N1CCN(c2cccc(Cl)c2)CC1 (stereo not given)	-16%	-25%
CCSC1=N/C(=C\c2ccc(Br)s2)C(=O)S1	-5%	0%
COc1ccc(CNC(=O)c2nc(-c3cccc4[nH]ccc34)no2)cc1OC	27%	18%
COc1ccccc1-c1cc(C(=O)Nc2c(C)nn(Cc3ccc(C)cc3)c2C)no1	?	?
COCC(O)CNC(=O)c1cc(-c2ccc(OC)cc2)nc2ccccc12 (stereo not given)	16%	48%[activator]
CCCOc1ccc(NC(=O)C(CC)CC)c2cccnc12	-5%	6%
Cc1noc(/C=C/c2ccco2)c1S(=O)(=O)N1CCC(C(=O)Nc2ccc(F)cc2F)CC1	6%	-9%
CCNC(=O)NC(=O)C(C)Sc1nnc(N2CCCCC2)n1-c1ccc(C)cc1 (stereo not given)	62%[activator]	-3%
Cc1ccccc1C(=O)Nc1nnc(S(=O)(=O)N(C)Cc2ccccc2)s1	41%[activator]	0%
Cc1ccc(OCC(=O)Nc2ccc3oc(-c4cccnc4)nc3c2)cc1	6%	0%
CCOc1ccc(CCNC(=O)Cn2nc(C)c3c(C)n(-c4ccccc4)nc3c2=O)cc1OCC	-6%	-5%
S=C1NC2=C(CCc3ccccc32)C(c2ccccc2)N1 (stereo not given)	0%	5%
CCCc1cc(=O)oc2cc(OC(C)C(=O)NCc3ccncc3)c(Cl)cc12 (stereo not given)	-3%	0%
COc1ccc(NC(=O)C2CCC(CNS(=O)(=O)c3csc(C(N)=O)c3)CC2)cc1 (stereo not given)	8%	11%
CNC(=O)c1nn(CN2CCN(Cc3cccc(C)c3)CC2)c(=O)c2ccccc12	-8%	9%
Cc1ccc(C)c(N2CCN(C(=O)C3CCC(CNS(=O)(=O)c4cccs4)CC3)CC2)c1 (stereo not given)	32µM*	?
N#Cc1nc(/C=C/c2ccc(F)cc2)oc1NCc1ccccc1	0%	0%
Cc1[nH]c2ccccc2c1/C=C(\C#N)c1nc2ccccc2[nH]1	62%[activator]	0%
CN(C(=O)c1ccc2ccccc2n1)C1CCN(Cc2ccncc2)CC1	-3%	4%
Cc1ccccc1-n1nnnc1C1(Nc2ccccc2)CCCCC1	152%[activator]	-2%
Cc1c(C)c2c(cc(C)c3c(-c4ccccc4)coc32)oc1=O	-2%	1%
O=C(CCSc1nc2ccccc2s1)NCc1cc(F)cc(F)c1	5%	15%
O=C(NCCc1ccccn1)c1ccc(C(F)(F)F)cc1	17%	-3%
COc1ccc(CNS(=O)(=O)c2ccc(C(=O)N(C)C)s2)cc1	-16%	-20%
Cc1nn(CC(=O)NC2CCCCC2)c(=O)c2cc3cc(F)ccc3n12	-1%	-6%
CCOC(=O)N1CCN(Cc2nc3cc(NC(=O)c4ccccc4Cl)ccc3n2CC)CC1	-18%	-21%
O=C(Nc1ccc2nc(SCC(=O)N3CCCC3)sc2c1)c1ccc(Br)cc1	0%	5%
CCCC(=O)Nc1ccc2nc(N3CCN(C(=O)OCC)CC3)cc(C(=O)O)c2c1	-1%	0%
COc1cccc(NC(=O)COc2c(C)[nH]ccc2=O)c1	-5%	36%[activator]
Fc1ccc(/C=N/Nc2ccc(Cl)c(Cl)c2)cc1F	8%	0%
CCC(=O)Nc1cccc(C(C)C)c1	15%	0%
CCC(C(=O)Nc1ccc(OC)cc1)n1nnc(C(=O)OC)c1C(=O)OC (stereo not given)	-7%	-13%
COc1cc2ccccc2cc1C(=O)N1CCC(C(=O)c2ccc3c(c2)OCCO3)CC1	-21%	?
Cc1cccc(-n2cc(-c3ccccc3)c3c(N4CCCC4)ncnc32)c1	2%	-4%
CN(C)C(=O)CSc1nc(NC2CC2)c2ccccc2n1	-5%	3%
CC(=O)Nc1ccc(NC(=O)CN(C)S(=O)(=O)c2ccccc2)cc1	-2%	1%
O=C(OCC(=O)C12CC3CC(CC(C3)C1)C2)c1c(Cl)cccc1Cl	83%[activator]	0%
Cn1c(=O)n(C)c2cc(N3CCCCC3)c(NC(=O)COc3ccc(Cl)cc3)cc21	7%	14%
O=c1cc(O)c2sc3nc(-c4cccs4)cc(-c4cccs4)c3c2[nH]1	-3%&-2%	0%&4%
CCN1CCCC1CNCc1cccs1 (stereo not given)	-10%	0%
O=C(O)Cn1cc(C(C(=O)O)N2CCN(c3ccc(F)cc3)CC2)c2ccc(F)cc21 (stereo not given)	-5%	2%
COc1ccc(NC(=O)CSc2nc3c(=O)[nH]cnc3n2-c2ccc(C)cc2)cc1OC	57%[activator]	54%[activator]
CC(C)(C)c1ccc(C2CC2C(=O)N/N=C/c2ccsc2)cc1 (stereo not given)	?	?
O=C(COC(=O)c1nc(-c2ccccc2)n(-c2ccccc2)n1)Nc1cc(F)ccc1F	-8%	-8%
CCC(=O)OC1(c2ccccc2)CCN(C)CC1C (stereo not given)	9%	19%
CCN(Cc1nc(-c2ccccc2)no1)C(=O)Nc1ccccc1OC	12%	24%
Fc1ccccc1-c1nc(N2CCCCCC2)c2ccccc2n1	-11%	-7%
c1ccc2oc(Oc3ccc(C4SCCS4)cc3)nc2c1	2%	193%[activator]
Cc1ccc(NC(=O)Cn2cc(S(=O)(=O)N3CCCC3)c(S(=O)(=O)N3CCCC3)c2)cc1C	77%[activator]	6%

(further entries)
SMILES	StopGo RLuc	2A firefly
CCCc1nc2sc3c(NCCN)ncnc3c2c2c1CCC2	-8%	10%
CCOc1cc(CNC(=O)c2ccc3nc(CCc4ccccc4)oc3c2)ccc1OC	-11%	-20%
CCCCCn1nc(C(=O)N(CC)Cc2nc3ccccc3c(=O)[nH]2)c2ccccc2c1=O	29%	0%
COc1ccc(C(C)=O)cc1CN1CCCC(C)C1 (stereo not given)	-7%	-9%
CC(=O)c1c(C)[nH]c(C(=O)NCCc2ccc(Cl)cc2)c1C	24%	39%[activator]
CCOc1cc(-c2ccccc2)sc1C(=O)O	-3%	15%
COc1ccc(OCCN(C)C(=O)c2ccc3ccccc3n2)cc1	-20%	?
CN(Cc1ccc(C(N)=O)cc1)Cc1ccsc1	-4%	-4%
CC(=O)Nc1ccc2nc(-c3cccc(C)c3)oc2c1	15%	119%[activator]
O=C(NCC(O)c1ccc(F)c(F)c1)Nc1nnc(C2CC2)s1 (stereo not given)	-10%	1%
COc1ccccc1C1c2ccc(O)cc2Oc2ncn3nc(C)nc3c21 (stereo not given)	5%	11%
O=C(CCc1cccs1)Nc1cccc2c1CCCC2	25%	53%[activator]
Cn1c(=O)c2c(n(C)c1=O)n(CC(=O)NC(C)(C)C)c(=O)n2C	-11%	-1%
COc1ccc(NC(=O)Cc2cnc(-n3cccc3)s2)cc1	62%[activator]	10%
Cc1ccc(-n2nnc(C(=O)Nc3nccs3)c2C(C)C)cc1	-2%	10%
O=C(N/N=C/c1ccc(Br)s1)C(c1ccccc1)c1ccccc1	?	?
NC(=O)COc1ccc(C2CC(=O)Nc3n[nH]c(Nc4ccccc4)c32)cc1 (stereo not given)	-11%	-7%
CCOc1ccc(CNC(=O)c2ccc(NC(=O)N3CCCCc4ccccc43)cc2)cc1	-4%	-8%
COc1cc(C(=O)NCCSc2c(C)[nH]c3ccccc23)cc(OC)c1OC	50%	118%[activator]
CC(C)C(CNC(=O)c1nn(-c2ccccc2)c(=O)c2ccccc12)N1CCOCC1 (stereo not given)	7%	-2%
COc1cc2c(cc1OC)-c1cc(=Nc3c(C)cc(C)cc3C)n(C)c(=O)n1CC2	25%	-10%[11.5 µM]
O=C(OCc1ccccc1)c1cnc2ccccc2n1	7%	31%[activator]
